High-throughput results deposited in PubChem BioAssay by several laboratories.
UCH37 inh – human UCH37 deubiquitinating enzyme inhibition; AID 588478; 330,000 tested, 0.33% active; Q9Y5K5; purified proteasome/UCH37, Ub-AMC cleavage fluorescence; inhibition, % (no concentration beside the values);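 active = mean of two replicates above 20%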;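 also: 0% = compound-free wells with enzyme and 100% = wells lacking proteasome; stock transfer was 100 nL into about 20 µL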
Target sequence (Q9Y5K5 whole entry, looked up): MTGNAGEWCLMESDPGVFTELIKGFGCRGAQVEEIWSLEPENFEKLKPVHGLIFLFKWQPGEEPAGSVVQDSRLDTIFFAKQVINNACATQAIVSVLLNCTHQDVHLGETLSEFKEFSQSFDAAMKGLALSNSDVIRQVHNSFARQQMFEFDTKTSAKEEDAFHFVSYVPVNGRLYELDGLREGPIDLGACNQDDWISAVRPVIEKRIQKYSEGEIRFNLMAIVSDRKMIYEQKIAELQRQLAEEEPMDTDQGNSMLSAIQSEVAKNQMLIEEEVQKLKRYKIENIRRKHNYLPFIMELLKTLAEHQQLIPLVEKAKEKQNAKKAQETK
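system = Proteasome-associated human UCH37 deubiquitinase | amount = 0.15 nM proteasome as dispensed | medium = pH 7.4 Tris-HCl (50 mM) with ovalbumin, ATP-MgCl2, DTT | incubation = 30 min preincubation with enzyme, 25 min cleavage at room temperature | detection = AMC fluorescence 355/460 nm | read-out basis = percent inhibition | controls = no-proteasome and no-compound wells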
FGF22 binding – binders of recombinant human FGF22 by thermal shift | 340,000 tested, 1.5% active | SYPRO orange fluorescence; percent of sucrose octasulfate shift, DMSO zero | calls only at 9.99 µM | Q9HCT0;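 active = melting point raised past a set limit in the mean and every replicate; three in four hits are not shown here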
HNF4A DNA FP – change in binding of human HNF4 alpha to DNA; HNF4a-FITC DNA binding, fluorescence polarization, 1 h; activity change, % at 10 µM; 360,000 tested, 0.3% active; in the data active = activity change above about 30%, passing the limit was not always enough;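 also: controls were the assay level and a saturating level of protein; the project sought stronger binding though the title names inhibitors; some compounds called inactive have numbers as strong as hits; positive values seem to mean higher polarization but the record does not say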
B2AR ag – agonists of human beta-2 adrenergic receptor inducing internalization; 340,000 tested, 0.43% active; Am2.2-beta2AR cells, FAP receptor internalization, flow cytometry; reference of the scale not given here; P07550; response, % (test concentration not listed);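 active = response above a set limit, near 3 SD of response in nonfluorescent compounds, cut at about 42% in these data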;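 also: stock transfer was 100 nL into about 11 µL; a reference agonist was the positive control; negative values mostly stem from fluorescent compounds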
Target sequence (P07550 whole entry, looked up): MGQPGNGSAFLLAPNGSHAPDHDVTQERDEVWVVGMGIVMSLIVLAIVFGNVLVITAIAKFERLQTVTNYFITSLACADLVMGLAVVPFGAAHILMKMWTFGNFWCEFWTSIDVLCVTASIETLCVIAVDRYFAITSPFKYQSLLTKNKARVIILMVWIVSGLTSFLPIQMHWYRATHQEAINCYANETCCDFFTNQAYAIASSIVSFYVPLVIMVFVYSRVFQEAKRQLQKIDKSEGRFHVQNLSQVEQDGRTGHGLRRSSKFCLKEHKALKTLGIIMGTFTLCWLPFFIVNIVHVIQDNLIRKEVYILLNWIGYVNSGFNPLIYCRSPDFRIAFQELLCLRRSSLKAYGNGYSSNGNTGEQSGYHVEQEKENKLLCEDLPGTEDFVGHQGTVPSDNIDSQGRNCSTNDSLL
E coli growth – inhibitors of Escherichia coli growth. 330,000 tested, 0.21% active. AID 1053175. OD600, 23 h; stronger effect = lower value. OD600 absorbance (no concentration beside the values);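 active = OD600 absorbance below the run mean of sample wells minus 3.6 SD, in any replicate, cut at about 0.56 in these data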;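 also: stock transfer was 300 nL into about 60 µL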
ALR H2O2 inh – inhibitors of human sulfhydryl oxidase ALR | P55789 | purified ALR, DTT oxidation, H2O2 HRP-luminol luminescence | inhibition, % (no concentration beside the values) | 290,000 tested, 3.8% active;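 active = mean and each replicate at 75% or more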;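 also: stock transfer was 7.5 nL into about 7.5 µL; 0% = neutral wells and 100% = wells with inactivated enzyme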
Target sequence (P55789 whole entry, looked up): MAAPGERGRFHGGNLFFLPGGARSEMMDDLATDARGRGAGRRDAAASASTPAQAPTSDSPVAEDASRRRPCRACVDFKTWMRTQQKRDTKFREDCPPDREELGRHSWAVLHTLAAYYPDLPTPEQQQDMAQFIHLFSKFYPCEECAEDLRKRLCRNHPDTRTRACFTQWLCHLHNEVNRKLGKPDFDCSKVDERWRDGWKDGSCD
Ecoli rRNA inh – inhibits bacterial ribosomal RNA function over humanized ribosomes; E. coli WT GFP vs humanized-ribosome RFP mutants, fluorescence, 24 h; stronger effect = lower value; DMSO median 0, no signal -100; GFP signal change (wild-type ribosome), % (test concentration not listed); 350,000 tested, 1.6% active;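 active = significant combined selectivity score with lowered wild-type GFP, culture density cut under 30%, mutant RFP and density less affected; inactive = any of these conditions unmet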; also: one replicate is shown; some compounds called inactive have numbers as strong as hits
Ecoli rRNA inh OD600 – second read-out of Ecoli rRNA inh, no call of its own (marks repeat the call); OD600 change, %; measured here: OD600 growth;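 optical density of the mix in the first replicate; 0 = DMSO median and -100 = no signal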
Ecoli rRNA inh RFP – recorded beside Ecoli rRNA inh, whose call it bears; RFP signal change, %; measured here: RFP humanized mutant strains;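 first replicate; 0 = DMSO median and -100 = no signal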
Starred values were filed as active, the others as inactive; i = inactive; x = no result given.

SMILES	UCH37 inh	FGF22 binding	HNF4A DNA FP	B2AR ag	E coli growth	ALR H2O2 inh	Ecoli rRNA inh	Ecoli rRNA inh OD600	Ecoli rRNA inh RFP
CCN1C[C@@H]2[C@@H]3C(=O)N(C)C(=O)[C@@H]3[C@](CC)(C1=O)N2C(=O)c1ccc(C(C)(C)C)cc1	-1.6	i	1.7	1	x	5	2	12	-0.9
Cc1cc2nsnc2c(S(=O)(=O)NCC(=O)O)c1C	8.1	i	-0.9	3	0.69	-1	3	-2	-9.1
Cc1ccc(C)c(S(=O)(=O)NNC(=O)Nc2ccccc2Cl)c1	4.3	i	0.3	13	0.7	11	-6	-18	1.9
Cc1ccc([C@H]2N[C@]3(CCCN(Cc4ccccc4)C3=O)[C@H]3C(=O)N(C)C(=O)[C@@H]23)cc1	x	i	8.0	x	x	x	3	3	-3.8
CCCNC(=O)c1ccc2c(=O)c(O)c(-c3ccc(C)cc3)[nH]c2c1	-45	i	0.6	4	x	-13	-6	2	-9.9
O=C(Nc1cccc(S(=O)(=O)c2cccc(NC(=O)C3CC3)c2)c1)C1CC1	-0.2	i	2.8	-18	0.7	-2	-23*	-5.0*	-9.4*
O=C(Cn1c(=O)oc2ccccc21)NCC1COc2ccccc2O1 (stereo not drawn)	4.6	x	1.6	0	0.73	8	0	2	-0.9
COc1ccc(S(=O)(=O)NCC(c2cccs2)N2CCc3ccccc3C2)cc1 (stereo not drawn)	0.9	x	-3.6	-5	0.69	-3	-13	-19	-1.9
COCCNc1oc(-c2ccco2)nc1S(=O)(=O)c1ccccc1	2.3	x	10	0	0.69	8	x	x	x
Cc1ccc(CSc2nc3ncccc3[nH]2)cc1	-1.6	x	-0.3	-22	0.73	-3	x	x	x
CCCCn1c(SCc2cccnc2)nc2c1c(=O)n(C)c(=O)n2C	2.7	x	2.6	-13	0.69	-7	x	x	x
CCN(CC)C(=O)CN(c1ccc(Cl)cc1)S(=O)(=O)c1ccccc1	5.1	x	1.0	5	0.74	0	x	x	x
O=C(COC(=O)CCc1ccc(S(=O)(=O)N2CCCCC2)cc1)Nc1cccc2ccccc12	0.3	x	0.3	-9	0.7	20	x	x	x
CCC(c1ccc(O)c(O)c1)C(CC)c1ccc(O)c(O)c1 (stereo not drawn)	2.9	x	2.6	5	0.59	x	x	x	x
Cc1ccccc1-n1c(=O)c2ccccc2n2cnnc12	6.0	x	0.8	-16	0.71	0	x	x	x
Cc1ccc2nc(N3CCOCC3)c(C=O)cc2c1	-8.4	i	2.2	4	0.69	-1	10	10	1.6
COC(=O)c1ccc(-c2sc3nc(N4CCOCC4)c4c(c3c2N)CCCC4)o1	-121	x	x	x	0.74	-18	x	x	x
CCOC(=O)C1(CCOc2ccccc2)CCN(S(=O)(=O)N(C)C)CC1	3.7	i	-1.5	-5	0.72	x	-10	-1	3.1
COC(=O)c1sc2ccccc2c1-n1cccc1C(=O)C(=O)Nc1ccc(Cl)cc1	6.5	x	-0.3	-5	0.78	-2	x	x	x
COc1ccc(C(CNC(=O)Nc2ccccc2)N2CCN(C)CC2)cc1 (stereo not drawn)	0.7	i	-0.7	-9	0.7	-3	4	7	-0.4
CCN(CC(=O)Nc1cc(C)on1)CC(=O)Nc1ccccc1C(F)(F)F	1.2	i	4.8	-1	0.68	31	3	8	-2.2
CC(C)c1ccc(NC(=O)CSc2n[nH]c(=O)n2C2CC2)cc1	0.1	i	3.2	1	0.69	-6	-3	0	-0.1
CCOC(=O)C1=C(CSCC(=O)OC)NC(=O)NC1c1cc(C)ccc1C (stereo not drawn)	1.9	x	-1.0	7	0.7	x	x	x	x
COc1cc(C(=O)OC(C)C(=O)NC(=O)NC2CCCCC2)ccc1OC(F)F (stereo not drawn)	1.4	i	2.4	-2	0.69	-22	1	-4	3.1
Cc1ccccc1CCNC(=O)C1CCC(=O)N(C2CCCCCC2)C1 (stereo not drawn)	0.9	i	2.8	-2	0.73	4	4	-3	4.4

Next section; the last six above are carried over.
SMILES	UCH37 inh	FGF22 binding	HNF4A DNA FP	B2AR ag	E coli growth	ALR H2O2 inh	Ecoli rRNA inh	Ecoli rRNA inh OD600	Ecoli rRNA inh RFP
COc1ccc(C(CNC(=O)Nc2ccccc2)N2CCN(C)CC2)cc1 (stereo not drawn)	0.7	i	-0.7	-9	0.7	-3	4	7	-0.4
CCN(CC(=O)Nc1cc(C)on1)CC(=O)Nc1ccccc1C(F)(F)F	1.2	i	4.8	-1	0.68	31	3	8	-2.2
CC(C)c1ccc(NC(=O)CSc2n[nH]c(=O)n2C2CC2)cc1	0.1	i	3.2	1	0.69	-6	-3	0	-0.1
CCOC(=O)C1=C(CSCC(=O)OC)NC(=O)NC1c1cc(C)ccc1C (stereo not drawn)	1.9	x	-1.0	7	0.7	x	x	x	x
COc1cc(C(=O)OC(C)C(=O)NC(=O)NC2CCCCC2)ccc1OC(F)F (stereo not drawn)	1.4	i	2.4	-2	0.69	-22	1	-4	3.1
Cc1ccccc1CCNC(=O)C1CCC(=O)N(C2CCCCCC2)C1 (stereo not drawn)	0.9	i	2.8	-2	0.73	4	4	-3	4.4
Cc1ccc[n+](CC(=O)c2cc3ccccc3oc2=O)c1	-52	x	0.6	-7	0.71	-1	x	x	x
COCCCN1C(=O)c2ccc(C(=O)Nc3ccccc3Cl)cc2C1=O	3.8	i	-0.3	3	0.65	4	11	8	3.9
CCn1c(SCC(=O)OCc2ccccc2)nnc1-c1ccco1	-2.2	i	2.4	7	0.67	-5	3	0	-1.0
O=C(COn1nnc2ccccc21)N1CCN(Cc2ccccc2)CC1	5.2	i	0.4	1	0.68	-10	1	7	-1.0
O=C(O)c1cccnc1SC1CC(=O)N(c2cccc(C(F)(F)F)c2)C1=O (stereo not drawn)	4.4	i	-1.0	-2	0.76	-5	11	5	1.8
CCOC(=O)C1=C(COC(=O)COc2ccc(C(C)=O)cc2)NC(=O)NC1C (stereo not drawn)	-1.5	i	0.1	-6	0.71	0	8	5	-0.5
O=C(NCCCN1CCN(c2cccc(Cl)c2)CC1)c1nc(-c2ccncc2)no1	5.6	x	-0.3	-9	0.67	x	x	x	x
COc1cc2c(cc1OC)-c1cc3ccc4c(c3c[n+]1CC2)OCO4	-14	i	-50	-95	0.71	x	76	22	3.0
O=S(=O)(NCC(c1ccc2c(c1)OCO2)N1CCOCC1)c1ccc(Br)cc1 (stereo not drawn)	4.5	x	0.5	4	0.64	-34	1	-14	-0.7
COc1ccc(NS(=O)(=O)c2ccc(O)c([N+](=O)[O-])c2)cc1S(=O)(=O)N1CCCCC1	5.3	x	-4.2	1	0.72	-1	11	4	2.3
CC(CCc1ccc(O)cc1)NC(c1ccccc1)c1ccc(Cl)cc1 (stereo not drawn)	2.8	i	0.7	8	0.66	27	-56	-78	-30
CCOc1ccccc1C(=O)n1nc2nc(C)cc(C)c2c1N	4.8	x	-1.3	0	0.69	6	x	x	x
COC(=O)c1ccc(NC(=O)c2cc(Cl)ccc2OC)cc1	0.1	i	0.9	-4	0.73	x	10	-1	-2.0
COc1ccc(CCNC(=O)CNS(=O)(=O)c2ccc(N(C)C)c([N+](=O)[O-])c2)cc1OC	5.4	i	1.6	-13	0.69	x	-20	-14	-2.8
Cc1ccc(C)c(N(CC(=O)NC2CCCC2)S(=O)(=O)c2ccccc2)c1	x	i	-3.7	-3	x	12	1	12	-2.2
Cc1ccccc1CNC(=O)CCC(=O)N1CCOc2ccc(Cl)cc21	2.1	i	1.1	1	0.68	-25	-3	-26	-4.1
O=C(N=Nc1c(O)n(Cc2ccccc2)c2ccccc12)c1ccc(O)cc1	6.6	x	-1.4	-13	0.7	-15	x	x	x
COc1ccc(C2/C=C\CN(C(=O)C3CCCCC3)CC(=O)N2Cc2ccc(F)cc2)cc1 (stereo not drawn)	-0.4	i	2.0	2	x	x	0	-4	0.1
CCOC(=O)N1CCC(NC(=O)Cn2cccc2C(=O)c2ccccc2)CC1	2.2	x	-4.4	1	0.68	0	x	x	x
COc1ccc(NC(=O)/C(C#N)=C\c2ccc(-c3cccc(C(=O)O)c3C)o2)cc1	10	i	-7.2	-1	0.69	45	-26	-22	-12
Cc1ccc(N(CCC#N)C(=O)COC(=O)c2nc3nc(C)cc(C)n3n2)cc1	2.2	i	-2.0	-3	0.65	1	11	10	1.6
CCN1CCN(c2cc(C)c3cc(NC(=O)c4ccncc4)ccc3n2)CC1	9.3	i	2.2	9	0.73	-11	8	18	4.2
Cc1ccc(S(=O)(=O)N/N=C/c2c[nH]c3ccccc23)cc1	x	x	4.5	5	x	74	-21	-35	-2.8
CCOc1[nH]n(-c2ccccc2)c(=O)c1C=Nc1ccc(C)cc1	1.6	i	3.1	-9	0.66	-20	16	14	6.0
Cc1cccn2c(CNCCc3ccco3)c(C(=O)N3CCOCC3)nc12	-3.8	i	-1.4	-4	0.7	x	9	16	2.0

Reformatted field by field: part of the list above.
> CC(CCc1ccc(O)cc1)NC(c1ccccc1)c1ccc(Cl)cc1 (stereo not drawn)
  UCH37 inh: 2.8; FGF22 binding: i; HNF4A DNA FP: 0.7; B2AR ag: 8; E coli growth: 0.66; ALR H2O2 inh: 27; Ecoli rRNA inh: -56; Ecoli rRNA inh OD600: -78; Ecoli rRNA inh RFP: -30
> CCOc1[nH]n(-c2ccccc2)c(=O)c1C=Nc1ccc(C)cc1
  UCH37 inh: 1.6; FGF22 binding: i; HNF4A DNA FP: 3.1; B2AR ag: -9; E coli growth: 0.66; ALR H2O2 inh: -20; Ecoli rRNA inh: 16; Ecoli rRNA inh OD600: 14; Ecoli rRNA inh RFP: 6.0

Later entries
SMILES	UCH37 inh	FGF22 binding	HNF4A DNA FP	B2AR ag	E coli growth	ALR H2O2 inh	Ecoli rRNA inh	Ecoli rRNA inh OD600	Ecoli rRNA inh RFP
CC(C)OC(=O)CSc1nnc(-c2ccccn2)n1-c1ccccc1	5.5	x	-0.1	0	0.66	-1	x	x	x
COc1ccc2[nH]c(=O)c(CN(C(=O)c3cccnc3)c3ccc(C)cc3C)cc2c1	-82	i	1.9	-3	0.7	-9	4	1	2.4
CCOc1ccc(S(=O)(=O)N2CCCC(C(=O)NCc3ccccn3)C2)cc1C (stereo not drawn)	1.9	i	0.4	-10	0.7	3	-4	-1	-2.9
O=c1c2ccccc2nnn1CSc1nnnn1-c1ccccc1	0.6	x	1.4	3	0.61	-20	x	x	x
COCCNc1nc2c(c(=O)n(C)c(=O)n2C)n1Cc1cccc(C)c1	0.8	x	-0.5	2	0.72	21	x	x	x
CNC(=O)C(=O)NCC(c1cccs1)S(=O)(=O)c1ccc(C)cc1 (stereo not drawn)	1.3	i	7.9	-1	0.63	-3	10	13	0.9
COc1ccc(OCC(=O)NNC(=O)C(=O)N2CCCC2)cc1	0.3	x	-1.9	-3	0.68	-18	x	x	x
CN1CCCC(OC(=O)c2ccc(C(C)(C)C)cc2)C1 (stereo not drawn)	4.9	i	-1.7	2	0.65	x	9	-4	0.4
O=C(CNC(=S)NC(=O)c1ccco1)c1ccccc1	5.4	x	3.3	4	0.73	12	x	x	x
COc1ccccc1/C=N/NC1=NCCCCC1	x	x	-2.4	-8	x	-4	x	x	x
O=C(Nc1ccccc1C(=O)N1CCCCC1)C1CCCCC1	0.0	x	2.3	1	0.67	-20	x	x	x
CCOc1ccc(C(C)=O)cc1COC(=O)c1cc([N+](=O)[O-])ccc1N1CCOCC1	4.9	i	1.0	11	0.68	-1	-8	2	4.2
COc1ccccc1-n1cnc(N)c1C(C)=O	-1.4	x	-2.5	3	0.7	-15	x	x	x
N#Cc1ccccc1NC(=O)c1ccc(-c2ccccc2Cl)o1	-6.4	x	-3.5	-1	0.7	1	x	x	x
COc1ccc(-c2[nH]ncc2CN2CCCO2)cc1F	3.1	i	-11	-2	0.71	1	-6	-2	-1.8

Some of the compounds tested; count on the stated rates, not on these rows.
